# Screening results: PubChem BioAssay, National Center for Advancing Translational Sciences (NCATS)
# AmpC inh no det = inhibitors of E. coli AmpC beta-lactamase without detergent | P00811 | AmpC nitrocefin hydrolysis, absorbance 480 nm, no detergent; potencies from a single point are estimates | Potency, µM (top dose mostly 28.7 µM), inactives show at the highest dose activity change, negative = inhibition | hit rate 1.8% among 71,000 | AID 585; active = falling curve, for most hits resting on a single point; inconclusive = weak or doubtful change; inactive = flat or rising curve; further: % of control where 0% means no effect; about half of the hits show no inhibition at the top dose; a quarter of the inactives give rising signals
# Target sequence (P00811 whole entry, looked up): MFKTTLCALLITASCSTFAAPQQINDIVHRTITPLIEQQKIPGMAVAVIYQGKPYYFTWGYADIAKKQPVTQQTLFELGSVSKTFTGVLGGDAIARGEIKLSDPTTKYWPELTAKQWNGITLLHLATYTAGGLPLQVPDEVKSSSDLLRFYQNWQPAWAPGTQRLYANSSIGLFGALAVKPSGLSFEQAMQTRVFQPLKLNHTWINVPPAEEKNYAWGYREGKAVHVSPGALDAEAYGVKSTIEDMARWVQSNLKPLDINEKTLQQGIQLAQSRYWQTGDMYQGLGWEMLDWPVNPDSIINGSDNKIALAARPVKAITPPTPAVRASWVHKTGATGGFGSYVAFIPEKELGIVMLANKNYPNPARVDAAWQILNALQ
#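 AmpC, 20 mM phosphate pH 7.0; 15 min cpd preinc, RT; start with nitrocefin (800 uM stock); A480 kinetic read, 20 s intervals, 4 min. No-enzyme wells = negative control.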
# Active calls of the source: *; [ ] = another dose, or the depositor's remark. Potency means the concentration at half of the fitted maximal effect. This is a subset; rates above refer to the full screens.
SMILES,AmpC inh no det
COc1ccc(C2=NOC3(CC(=O)N(c4ccc(C)cc4)C3=O)C2)c(OC)c1 (stereo not drawn),31%
COc1cc(NC(=O)CCn2c(=O)[nH]c3ccsc3c2=O)cc(OC)c1,-3%
O=C(Nc1nccs1)C1CCN(S(=O)(=O)c2cnc[nH]2)CC1,-8%
COc1ccccc1Nc1ncnc2ccccc12,-10%
Cc1ccc2c(c1)c(C)c(C)n2CC(O)CN1CCCCC1C (stereo not drawn),9%
CC1=C(C(=O)NCc2ccccc2)C(c2ccccc2OCC(N)=O)NC(=O)N1 (stereo not drawn),0%
CCOc1cc(NC(=O)c2cnccn2)c(OCC)cc1NC(=O)c1ccc(OC)cc1,37%
Cn1c(SC2C(=O)CC(C)(C)CC2=O)nnc1-c1ccco1,1%
COc1ccc(S(=O)(=O)NCCSCc2ccco2)cc1,13µM*[single pt active]
Cc1ccc(-n2nnnc2SCc2nnc(-c3ccccc3Br)o2)cc1,2%
Cn1ccnc1Sc1nc2c(c(=O)n(C)c(=O)n2C)n1C,-5%
CCC(=O)N1CCc2cc(S(=O)(=O)NC(C(=O)NC(C)c3ccccc3)C(C)C)ccc21 (stereo not drawn),7%
CC1CCC(C(C)C)C(OC(=O)CSc2n[nH]c(=O)[nH]c2=O)C1 (stereo not drawn),-2%
COc1cc(C(c2sc3nc(C)nn3c2O)N2CC(C)CC(C)C2)cc(OC)c1OC (stereo not drawn),-1%
CCOC(=O)c1cc(-c2ccccc2)sc1N,-7%
CNC(=O)c1ccccc1-c1ccccc1,-7%
c1ccc(-n2c(-c3ccncc3)nnc2-c2ccco2)cc1,7%
COc1cc(C(C)=O)ccc1OCC(=O)c1cc(C)n(C2CC2)c1C,64%
CCOc1ccc(-c2nnn(CC(=O)Nc3cc(OC)cc(OC)c3)n2)cc1OCC,48%
COCc1nc2ccccc2n1CCCOc1ccccc1,71%
C=CCn1c(SCC(=O)Nc2ccc(N(C)C)cc2)nnc1-c1cccc(C)c1,37%
C1=CCC(/C=N/n2cnnc2)CC1 (stereo not drawn),-9%
CCOc1ccc(N2C(=O)CC(SCCN)C2=O)cc1 (stereo not drawn),6%
O=C(NC1CCCCC1)N1CCN(Cc2nc3ccccc3c(=O)[nH]2)CC1,18%

# 16 of the compounds above, tab-delimited.
molecule	AmpC inh no det
CC1=C(C(=O)NCc2ccccc2)C(c2ccccc2OCC(N)=O)NC(=O)N1 (stereo not drawn)	0%
CCOc1cc(NC(=O)c2cnccn2)c(OCC)cc1NC(=O)c1ccc(OC)cc1	37%
Cn1c(SC2C(=O)CC(C)(C)CC2=O)nnc1-c1ccco1	1%
COc1ccc(S(=O)(=O)NCCSCc2ccco2)cc1	13µM*[single pt active]
Cc1ccc(-n2nnnc2SCc2nnc(-c3ccccc3Br)o2)cc1	2%
Cn1ccnc1Sc1nc2c(c(=O)n(C)c(=O)n2C)n1C	-5%
CCC(=O)N1CCc2cc(S(=O)(=O)NC(C(=O)NC(C)c3ccccc3)C(C)C)ccc21 (stereo not drawn)	7%
CC1CCC(C(C)C)C(OC(=O)CSc2n[nH]c(=O)[nH]c2=O)C1 (stereo not drawn)	-2%
COc1cc(C(c2sc3nc(C)nn3c2O)N2CC(C)CC(C)C2)cc(OC)c1OC (stereo not drawn)	-1%
CCOC(=O)c1cc(-c2ccccc2)sc1N	-7%
CNC(=O)c1ccccc1-c1ccccc1	-7%
c1ccc(-n2c(-c3ccncc3)nnc2-c2ccco2)cc1	7%
COc1cc(C(C)=O)ccc1OCC(=O)c1cc(C)n(C2CC2)c1C	64%
CCOc1ccc(-c2nnn(CC(=O)Nc3cc(OC)cc(OC)c3)n2)cc1OCC	48%
COCc1nc2ccccc2n1CCCOc1ccccc1	71%
C=CCn1c(SCC(=O)Nc2ccc(N(C)C)cc2)nnc1-c1cccc(C)c1	37%

# Next part
SMILES,AmpC inh no det
CCn1c(=O)c(-c2ccccc2)c(O)c2ccccc21,-9%
Cc1cc(C(C)(C)C)ccc1OCCN(C)C,-1%
CCCCNS(=O)(=O)c1ccc2nc(SCC(=O)c3ccc(C#N)cc3)[nH]c2c1,-10%
CCOC(=O)c1ccc(NC(=O)CS(=O)(=O)c2cn(CC)c3ccccc23)cc1,-13%
O=C1NC(NS(=O)(=O)c2ccccc2)(C(F)(F)F)C(=O)N1Cc1cccnc1 (stereo not drawn),-7%
O=C(CSc1nnc(-c2c[nH]c3ccccc23)o1)N(Cc1ccccc1)c1ccc(F)cc1,7%
COC(=O)C1=C(C)N(C)C(C)=C(C(=O)OC)C1c1ccc(C(=O)OC)cc1,49%
O=C(NC1CC1)c1ccc(CS(=O)(=O)c2c(Cl)cccc2Cl)o1,0%
Cc1ccc(SCCC(=O)N(C)C)cc1,3%
CCOc1cc(CNc2ncc(-c3ccc(OC)cc3)n2C)ccc1O,-2%
C/C=C(\C)CN1CCc2cc(OC)c(OC)cc2C1,-1%
O=C(Nc1ccc(-n2cnnn2)cc1)C1CCC1,-14%
CCCCOC(=O)C1=C(C)Nc2ncnn2C1c1cccc(OC)c1 (stereo not drawn),32%
CC(=NCC1CCCO1)c1c(O)[nH]c(=O)[nH]c1=O (stereo not drawn),-6%
O=S(=O)(c1cnccc1N1CCN(CCO)CC1)N1CCCC1,0%[5.75 µM]
Cc1ccc(NC(=O)CSc2nnc(-c3cnccn3)n2Cc2ccco2)cc1C,-6%
CCCCCc1c(C)nc(NCc2ccccc2)[nH]c1=O,-24%
O=C(CSc1ncnc2ccccc12)N1CCCC1,-6%
CCCc1nnc(NC(=O)c2c(O)c3cccc4c3n(c2=O)CCC4)s1,128%
C=C1CC23C[C@H]4[C@@H]5[C@@]6(C)C[C@H](OC(=O)c7ccccc7)[C@@H](OC(C)=O)[C@]57[C@@H]2[C@@H](OC(C)=O)[C@H]1[C@@H](O)[C@H]3[C@H]7N4C6,12%[12.8 µM]
Cc1noc(C)c1-c1nc(Nc2ccncc2)c2ccccc2n1,3%
COc1ccccc1NC(=O)CSc1ccc2nnc(-c3ccccn3)n2n1,6%
CCN(CC)S(=O)(=O)c1ccc(F)c(C(=O)NCCC(C)C)c1,11%
CCNc1c2c3c(cccc3n(C)c1=O)C(=O)c1ccccc1-2,46%
CCOCC(=O)Nc1nc2ccc(S(C)(=O)=O)cc2s1,-4%
CCCc1cc(N2CCCC(C(=O)NCc3ccc4c(c3)OCO4)C2)n2ncnc2n1 (stereo not drawn),46%
O=C(CSc1nnc(NC(=O)c2ccco2)s1)NC1CCCCC1,19%
COc1ccc(CNC(=O)CN(C(=O)c2cc3sccc3n2C)C2CCCC2)cc1,48%
COc1ccc(OC)c(NC(=O)CSc2nnc(CNC(=O)c3ccco3)o2)c1,-10%
COc1ccc(F)cc1S(=O)(=O)N1CCC(C(N)=O)CC1,-2%
COC(=O)c1ccc(-c2nc3ccccc3o2)cc1,19%
O=C(CN1C(=O)c2ccccc2S1(=O)=O)N1CCc2ccccc2C1,10%
Cc1cc(C)c(-c2cc(C(F)(F)F)no2)c(=O)[nH]1,14%
CCOC(=O)Cc1csc(SCC(=O)c2c(N)n(CC(C)C)c(=O)n(C)c2=O)n1,30%
CCCc1cc(C(=O)N2CCN(c3ccccc3C)CC2)cs1,15%
CC1(c2ccccc2)CC(c2ccccc2)=Nc2nonc2N1 (stereo not drawn),-10%
CCn1c(CSc2nc3ccccc3n2C)nc2ccccc21,16%
COc1ccc(-c2nnn(CC(=O)N(C3CCCCC3)C(C)C(=O)NC3CCCC3)n2)cc1OC (stereo not drawn),118%
Cc1cc(C)nc(-n2nc(C)c3c(=O)[nH]c(C(F)(F)F)nc32)n1,0%
CCOC(=O)C(NC(=O)N1CCCCC1)(c1ccccc1)C(F)(F)F (stereo not drawn),2%
Clc1ccc(C(c2nnnn2C2CCCC2)N2CCSCC2)cc1 (stereo not drawn),23%
CCOC(=O)C1CCCN(C(=O)c2cn(CC)c(=O)c3cc(OC)c(OC)cc23)C1 (stereo not drawn),22%
c1ccc(OCc2nc3ccccc3[nH]2)cc1,-10%
Cc1ccsc1C1NC(=O)c2c(sc3c2CCN(C)C3)N1 (stereo not drawn),35%
O=P(O)(CCCCP(=O)(O)CCc1ccccc1)CCc1ccccc1,16%
COc1cc(C2C(C(=O)Nc3ccccc3OC)=C(C)Nc3ncnn32)ccc1O (stereo not drawn),4µM*[single pt active]
O=C(CN1C2CCC1CC(NC(=O)C1CC1)C2)NCc1ccccc1 (stereo not drawn),-8%
COc1ccc(C(=O)N2CCC3(CC2)CCN(c2ccncc2)CC3)cc1,10%
CCOc1ccc(-n2c(SCC(=O)Nc3ccc4c(c3)OCO4)nc3c(c2=O)SCC3)cc1,-10%
Cc1ccc(C2C3=C(CC(C)(C)CC3=O)NC3=C2C(=O)CC(C)(C)C3)o1,16%
Cc1nn(Cc2ccccc2)c(Cl)c1C(=O)OCc1nnc(-c2ccccc2)o1,26%
O=S(=O)(c1ccc(Br)c2nsnc12)N1CCOCC1,-10%
O=c1[nH]n(-c2ncnc3c2cnn3-c2ccccc2)c(=O)c2ccccc12,-13%
CC(C)(C)OC(=O)N1CCC[C@H]1c1nnc(SCc2ccccc2Cl)o1,80%
COc1ccc(-c2csc(Cc3nnc4n3CCCCC4)n2)cc1OC,28%
O=C(NCCCN1CCN(c2ccccc2F)CC1)Nc1ccc(F)cc1,0%
CCOC(=O)CC(=O)CSc1ccc2nnc(-c3ccccc3)n2n1,15%
O=C(NC1CCCCC1)n1c(=O)oc2ccccc21,-5%
N#CCSc1nnc2c(Cl)cc(Cl)cn12,-8%
Cc1c(N=Cc2ccc(Cl)o2)c(=O)n(-c2ccccc2)n1C,3%

# Other results
SMILES,AmpC inh no det
Cc1ccc(S(=O)(=O)c2cc3c(=O)n4ccccc4nc3n(CC3CCCO3)c2=N)cc1 (stereo not drawn),24%
Nc1nc(N)[n+]([O-])c(N)c1NCO,-8%[5.75 µM]
COc1ccc(NC(=O)C2C3C=CC4(CN(Cc5cccnc5)C(=O)C24)O3)c(OC)c1 (stereo not drawn),0%
Cc1nc(SCC(=O)NCc2ccco2)c2oc3ccccc3c2n1,35%
Cc1cc2cc(CN3C(=O)c4ccccc4C3=O)ccc2n1C,-2%
C=CCc1cc(OC)ccc1OCCON1C(=O)CCC1=O,13%
CCN(CCCNC(=O)C1CCN(S(=O)(=O)c2cnc[nH]2)CC1)c1cccc(C)c1,30%
Cc1ccc(OCC(=O)N2CCN(C3=NS(=O)(=O)c4ccccc43)CC2)cc1,19%
CCN=C1SC(CC(=O)NC2CCCCC2)C(=O)N1CC (stereo not drawn),1%
O=c1oc(-c2cccnc2)nc2ccccc12,-4%
Cc1ccc(CNC(=O)CCS(=O)(=O)c2cc(Br)cc3c2N(C(=O)C2CC2)CC3)o1,41%
CCOc1ccccc1-n1c(SCC(=O)NC(C)(C)C)nnc1-c1ccoc1C,57%
CN(C)c1ccc(-c2cc(Nc3ccc(F)cc3)ncn2)cc1,30%
O=C(Nc1cccc(F)c1)N1CC[C@@]2(CCCN(C(=O)c3ccco3)C2)C1,1%
O=C(NCc1ccc(N2CCCC2=O)cc1)Nc1ccccc1,-1%
Cc1ccc2[nH]c(=O)c(CN(Cc3ccccc3Cl)C(=O)N3CCOCC3)cc2c1,129%
Cc1noc(C)c1CN1C(=O)NC2(CCc3ccccc3C2)C1=O (stereo not drawn),-7%
Cc1cccc(CNc2ncncc2-c2cccc(NS(C)(=O)=O)c2)c1,35%
CCOC(=O)c1[nH]c(COC(=O)c2ccccc2NC(=O)c2ccco2)c(C(=O)OCC)c1C,36%
COc1ccccc1-c1nc(N(C)C)c2ccccc2n1,2%
CCCCCC(=O)Nc1ccc(N2CCN(C(=O)CCC)CC2)cc1,26%
Clc1ccc(Cc2nnc(-c3cccs3)o2)cc1,18%
COc1ccc(C(=O)Nc2nc3nc(-c4ccccc4)cc(=O)n3[nH]2)cc1,-24%
CCOC(=O)Cn1nnnc1CN(Cc1ccccc1)Cc1cc2cc(CC)ccc2[nH]c1=O,71%
CC(C)OCCCNC(=O)CNC(=O)c1cccs1,-6%
COc1ccc(/C=N\NC(=O)O)cc1,3%[5.75 µM]
COC(=O)c1ccccc1NC(=O)CNc1cc(Cl)ccc1N1CCOCC1,64%
CC(=O)SCCC(=O)Nc1ccccc1,-7%
N#CC1=C(N)Oc2n[nH]c(-c3ccccc3)c2C1c1ccncc1 (stereo not drawn),-12%
O=C(O)CCCNC1=NCCC1,-4%
c1ccc(-n2ncc3c(N4CCN(c5ccccn5)CC4)nc(N4CCCCC4)nc32)cc1,14%
CC1CCCC(C)N1C(=O)CN1C(=O)C(C)(C)Oc2ccc(C(=O)NC3CCCC3)cc21 (stereo not drawn),92%
CCCn1c(-c2ccc(F)cc2)nc2c(N3CCN(C)CC3)nc(C)nc21,87%
COc1ccc2[nH]cc(CCNc3nc(-c4ccccc4CN(C)C)nc4ccccc34)c2c1,44%
CN(CC(=O)NCc1ccc2c(c1)OCO2)S(=O)(=O)c1ccc(Br)s1,-4%
O=C(c1ccc(N2CCOCC2)nc1)N1CCCCC1,2%
O=c1c(-c2cc(F)cc(F)c2)nc2cnc(Oc3ccccc3)nc2n1C1CC1,-5%
Cc1ccc(C2C3=C(CC(C)(C)CC3=O)Nc3[nH]c(=S)[nH]c(=O)c32)cc1 (stereo not drawn),-6%
Cc1ccc(-n2c(C)cc(C3N=C(N)Nc4nc5ccccc5n43)c2C)c(C)c1 (stereo not drawn),25%
CCOC(=O)CSc1nc(NCc2ccco2)c2ccccc2n1,28%
COc1ccc(C2SCCN2S(=O)(=O)c2ccc(F)cc2)cc1OC (stereo not drawn),61%
CC/C(=C(/CC)c1ccc(O)cc1)c1ccc(O)cc1,-24%
COc1ccc(OC)c(-n2c(C)nc3cc(C(=O)O)ccc32)c1,-4%
NC(=O)CSc1nnc(-c2ccc(O)cc2)n1Cc1ccco1,13%
CC(C)=CC(=O)Nc1nnc(-c2cccnc2)s1,12%
COC(=O)[C@H](N)Cc1ccc(Cl)cc1,-5%
CCC(=O)N1CCc2cc(Br)cc(S(=O)(=O)NCCN3CCOCC3)c21,-7%
